AmpC nodet inh = Promiscuous and Specific Inhibitors of AmpC Beta-Lactamase (assay without detergent) | Potency, µM (highest dose often 28.7 µM), inactives show top-dose activity change, negative = inhibition | hit rate 1.8% among 71,000 | AID 585, 2007 | AmpC nitrocefin hydrolysis, absorbance 480 nm, no detergent; potencies from a single point are estimates; active = falling curve, for most hits resting on a single point; inconclusive = weak or doubtful change; inactive = flat or rising curve; also: % of control where 0% means no effect; about half of the hits show no inhibition at the top dose; a quarter of the inactives give rising signals
Target sequence (P00811 whole entry, looked up): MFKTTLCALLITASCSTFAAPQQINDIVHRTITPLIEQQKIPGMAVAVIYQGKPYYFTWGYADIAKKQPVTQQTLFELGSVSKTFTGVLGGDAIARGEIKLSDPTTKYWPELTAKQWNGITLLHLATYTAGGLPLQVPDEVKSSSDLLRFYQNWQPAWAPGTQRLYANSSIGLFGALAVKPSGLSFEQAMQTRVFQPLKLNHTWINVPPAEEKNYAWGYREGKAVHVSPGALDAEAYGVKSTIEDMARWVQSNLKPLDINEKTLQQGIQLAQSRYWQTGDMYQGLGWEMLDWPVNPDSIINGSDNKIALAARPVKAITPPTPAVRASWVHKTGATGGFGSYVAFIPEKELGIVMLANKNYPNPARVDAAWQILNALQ
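AmpC in 20 mM phosphate buffer pH 7.0 was preincubated 15 min at room temperature with compounds. Nitrocefin (800 uM stock) was then added and hydrolysis followed at 480 nm every 20 s for 4 min.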
* marks the source's active call; other numbers are inactive results; [ ] = dose if it differs, or a comment. Potency is read from the fitted curve at half-maximal effect.

entry	mol	AmpC nodet inh
1	CC1Cc2ccccc2N1C(=O)C1CCCN(S(=O)(=O)c2cccc3cccnc23)C1 (stereo unspecified)	82%
2	Cc1cc2c(=O)n(Cc3ccco3)c(SCC(=O)NCc3ccco3)nc2s1	-14%
3	COc1cc2c(cc1OC)C(c1ccccc1O)N(C1CC(=O)N(c3ccccc3)C1=O)CC2 (stereo unspecified)	103%
4	CN(C)c1ncc2ncc(=O)n(C[C@H]3CCCO3)c2n1	0%
5	COC(=O)N1CCC2(CCCN(C(c3ccccc3)c3ccccc3)C2)CC1	55%
6	COc1cccc(/C=N/n2c(CO)nc3ccccc32)c1OC	56%
7	CC(=O)N1CCCc2cc(S(=O)(=O)N(C)Cc3ccccc3)ccc21	70%
8	O=C(NCCN1CCOCC1)c1cc(=O)[nH]c2ccc(Br)cc12	-14%
9	CCc1c(C(=O)Nc2ccc(OC)cc2)[nH]c(C)c1C(C)=O	-15%
10	Cc1ccc2nc3c(cc(C#N)c(=O)n3-c3nccs3)c(=O)n2c1	-13%
11	Cc1cc(Cl)c(S(=O)(=O)NC2CCCCC2)cc1OCC(=O)Nc1nncs1	-13%
12	N#CC1=C(N)Oc2n[nH]c(-c3cccs3)c2C1c1cccnc1 (stereo unspecified)	-18%
13	O=C(c1cccc(F)c1)N1CCC2(CCCN(Cc3cc(C(F)(F)F)cc(C(F)(F)F)c3)C2)CC1	23%
14	COc1ccc(-n2c(SC)nc(O)cc2=O)cc1	-11%
15	CCN(CC)CCNC(=O)CCn1c(=S)[nH]c2cc3c(cc2c1=O)OCO3	-25%

Four compounds picked at random from those above, as already listed:
entry	mol	AmpC nodet inh
6	COc1cccc(/C=N/n2c(CO)nc3ccccc32)c1OC	56%
4	CN(C)c1ncc2ncc(=O)n(C[C@H]3CCCO3)c2n1	0%
3	COc1cc2c(cc1OC)C(c1ccccc1O)N(C1CC(=O)N(c3ccccc3)C1=O)CC2 (stereo unspecified)	103%
15	CCN(CC)CCNC(=O)CCn1c(=S)[nH]c2cc3c(cc2c1=O)OCO3	-25%

More structures
entry	mol	AmpC nodet inh
16	O=c1c2[nH]c3ccc(F)cc3c2ncn1CCN1CCN(Cc2ccccc2)CC1	3.2µM*[single pt active]
17	CCOc1cc(C)nc(N2CCN(C3CCCCC3)CC2)n1	6%
18	COc1cccc(OC)c1C(=O)N1CCN(Cc2ccccc2C)CC1	56%
19	O=C(CSc1nnc(CNC(=O)c2cccs2)o1)c1ccccc1	0%
20	COc1ccc(-n2c(O)c(C=NC3CC3)c(=O)[nH]c2=O)cc1	7%
21	COc1ccc(CCCc2nnc(SCC(=O)Nc3cc(C)c(C)cc3Br)o2)cc1	3%
22	CCCCOC(=O)Cn1c(=N)n(CCN2CCOCC2)c2ccccc21	22%
23	Cc1cc(C)nc(NS(=O)(=O)c2ccc(NC(=O)CCCN3C(=O)c4ccccc4C3=O)cc2)n1	-11%
24	Nn1c(SCc2nc3ccccc3[nH]2)nnc1C1CCCCC1	-1%
25	Cc1cc(C)cc(N(C(C)C(=O)N2CCCCC2)S(C)(=O)=O)c1 (stereo unspecified)	13%
26	O=C(Nc1ccc2c(c1)OCO2)C1CC(c2c(F)cccc2Cl)=NO1 (stereo unspecified)	-3%
27	COCCn1c(=O)c(-c2cccs2)nc2cncnc21	27%
28	CCCSc1nc2c(cnn2-c2ccccc2)c(=O)[nH]1	44%
29	O=C(O)c1c2ccccc2cc2ccccc12	-3%
30	CCCCNC(=O)CC1N=C2c3ccccc3N=C(SCC(=O)Nc3ccccc3C)N2C1=O (stereo unspecified)	24%

entry	mol	AmpC nodet inh
31	CN(Cc1nc2ccccc2n1C)S(=O)(=O)c1ccc(Cl)cc1	11%
32	COc1cc(-c2nnc3n2N=C(c2ccccc2)CS3)cc(OC)c1OC	-6%
33	FC(F)(F)c1ccccc1-c1cncnc1NCCN1CCOCC1	45%
34	Cc1nc(N2CCN(Cc3ccccc3)CC2)nc2c1C(=O)CC(C)C2 (stereo unspecified)	97%
35	O=C(COC(=O)c1cccnc1Nc1cccc(C(F)(F)F)c1)NCCN1C(=O)CSC1=O	96%
36	C#Cc1ccc(C(=O)Nc2cc(C(N)=O)ccc2N2CCOCC2)cc1	-10%
37	CCOC(=O)N1CCC(NC(=O)C2CCN(Cc3nc(-c4ccc(CC)cc4)oc3C)CC2)CC1	26%
38	COc1ccc(N(CN2C(=O)c3ccccc3C2=O)C(=O)C(C)C)cc1	21%
39	Cc1nccn1-c1c2c(c(C#N)c3nc4ccccc4n13)CCC2	-2%
40	Cc1cc(C)cc(OCc2ccc(C(=O)O)o2)c1	-7%
41	CCN(CC)c1nc2ccccc2n2cnnc12	16%
42	Cc1ccc(Nc2nc(CSc3nnnn3-c3ccccc3)cc(=O)[nH]2)cc1	14%
43	COc1ccc(O)cc1	12%
44	O=C(NC1CCCCCC1)c1cc2n(n1)C(C(F)(F)F)CC(c1ccco1)N2 (stereo unspecified)	67%
45	Cc1cc(C)c(C)c(OCc2nc(-c3cccnc3)no2)c1	47%

entry	mol	AmpC nodet inh
46	Cc1ccccc1-c1nnc2s/c(=C\c3ccc(N(C)C)cc3)c(=O)n12	-10%
47	Cc1cc(C)c(N2C(=NC(=O)CCCC(=O)O)SC3CS(=O)(=O)CC32)c(C)c1 (stereo unspecified)	-2%
48	O=C(O)CSc1nc2c(c(=O)[nH]1)CCCC2	-4%
49	O=S(NCc1ccccc1)C12CC3CC(CC(C3)C1)C2 (stereo unspecified)	50%
50	O=C(O)NCc1ccccc1 (tested in a mixture with another compound)	0%[5.75 µM]
51	CCS(=O)(=O)N1CCC(C(=O)N2CCC3(CC2)OCCO3)CC1	-4%
52	COc1ccc(C2CC(c3ccccc3Cl)Nc3ncnn32)cc1OC (stereo unspecified)	89%
53	COc1cc(Cl)c(S(=O)(=O)N2CC(C)OC(C)C2)cc1Cl (stereo unspecified)	29%
54	CC(C)[C@@H](CC(=O)N[C@@H]1CCNC[C@H]1C(=O)N[C@H](CC(=O)N[C@@H](CCC(=O)O)CC(=O)O)Cc1ccccc1)NC(=O)C[C@H](CO)NC(=O)[C@@H]1CNCC[C@H]1N	70%
55	CCCCC1(CC)C(=O)NC(=O)NC1=Nc1ccc(OC)cc1 (stereo unspecified)	4%
56	COc1ccc(-n2c(=O)cc(N3CCCCCC3)[nH]c2=O)cc1	3%
57	COc1ccc(C(CC(=O)O)NC(=O)COc2ccccc2)cc1OC (stereo unspecified)	-6%
58	CCCn1c(SCC(=O)Nc2cccc(C(=O)OC)c2)nnc1-c1cccnc1	17%
59	O=C(Cc1ccc(-n2cccc2)cc1)N1CCN(c2ccccc2F)CC1	57%
60	CCOC(=O)c1c(-c2cccs2)csc1NC(=O)COC(=O)c1c(C)noc1C	5%

entry	mol	AmpC nodet inh
61	Cc1cc(Nc2ccc(C(=O)O)cc2)n2nc(C)nc2n1	6%
62	CC1CCC2C(C1)c1sc(=O)[nH]c1SC2(C)C (stereo unspecified)	-15%
63	CCOC(=O)c1sc(=S)n(C)c1N	0%
64	Cc1cc(=O)oc(C)c1C(=O)N1CCN(C(c2ccccc2)c2ccccc2)CC1	131%
65	COc1ccccc1N1CCN(Cc2nc(N)nc(Nc3ccc(C)cc3)n2)CC1	88%
66	COc1ccc(C(=O)O)cc1Nc1cc(C)nc2ncnn12	3%
67	O=S(=O)(Nc1cccnc1)c1cc(Cl)ccc1Cl	-9%
68	Cc1cc(C)cc(-n2nnc(C(=O)NCc3ccco3)c2N)c1	7%
69	N#Cc1cc2c(=O)n3ccccc3nc2n(Cc2cccnc2)c1=O	-6%
70	CS(=O)(=O)N1CCC(C(=O)N2CCC(Cc3ccccc3)CC2)CC1	13µM*
71	O=P(O)(OCc1ccccc1)OCc1ccccc1	-4%
72	NS(=O)(=O)c1ccc(CCNC(=O)COC(=O)C2CCCN2C(=O)c2cccs2)cc1 (stereo unspecified)	-4%
73	Cc1cc(NC(=O)CSc2c3c(nc4ccccc24)CCC3)no1	4µM*[single pt active]
74	Cc1cccn2c(=O)c3cc(C(=O)NCc4ccco4)c(=N)n(CCc4ccccc4)c3nc12	64%
75	c1ccc(-c2cccc(N3CCC4(CCNCC4)CC3)c2)cc1	113%

entry	mol	AmpC nodet inh
76	COc1ccc(-c2cc(C(F)F)n3ncc(C(=O)N4CCN5CCCC5C4)c3n2)cc1 (stereo unspecified)	109%
77	c1ccc2c(c1)OCC(c1nnc3sc(-c4ccc5c(c4)OCO5)nn13)O2 (stereo unspecified)	65%
78	CCC(C)N1CC(C(=O)NC2CCCCC2)CC1=O (stereo unspecified)	-12%
79	Cc1ccc(CC(=O)Nc2cccc(C)n2)cc1	6%
80	NCCC[C@@H](CC(=O)N[C@@H]1CCNC[C@H]1C(=O)N[C@H](CC(=O)N[C@@H](CCC(=O)O)CC(=O)O)Cc1c[nH]c2ccccc12)NC(=O)C[C@H](CO)NC(=O)[C@@H]1CCCC[C@H]1N	17%
81	CCOc1ccccc1N1Cc2cc(C)c(C)cc2C1	37%
82	CCOC(=O)C1CCN(C(c2cccc(OC)c2)c2sc3nc(C)nn3c2O)CC1 (stereo unspecified)	3%
83	Cc1ccc(S(=O)(=O)N2Cc3ccccc3CC2C(=O)Nc2cc(C)on2)cc1 (stereo unspecified)	-9%
84	O=C(NC1(C(F)(F)F)NC(=O)N(CC2CCCCC2)C1=O)c1ccco1 (stereo unspecified)	7%
85	CCOC(=O)C1=C(C)NC2=C(C(=O)C(C(=O)OCC)C(c3ccco3)C2)C1c1ccccn1 (stereo unspecified)	54%
86	O=C(COC(=O)CCCN1C(=O)c2ccccc2C1=O)Nc1ncc(Cl)cc1Cl	20%
87	Cn1ccnc1SCC(=O)c1ccc(Br)cc1	-4%
88	CN1C(=O)CC(N2CCN(c3ccccn3)CC2)C1=O (stereo unspecified)	6%
89	Cc1nc(CNS(=O)(=O)c2ccc3c(c2)OCCO3)cs1	0%
90	Cn1c(=O)oc2cc(S(=O)(=O)NCCN3CCN(c4ccccc4F)CC3)ccc21	28%

entry	mol	AmpC nodet inh
91	COc1ccc(Cl)cc1NC(=O)Cn1c(=O)n2nc(C)nc2c2ccccc21	4µM*[single pt active]
92	C[C@@H](C(=O)O)c1ccc(C[C@@H]2CCCC2=O)cc1	6%
93	COc1ccc(C(=O)c2coc3ccc(O)c(CN(C)C)c23)cc1	16%
94	Cc1ccc(Cn2c(NC(=O)c3ccco3)nc3ccccc32)cc1	3%
95	Cc1nc2cc(F)ccc2n1C1CCN(S(=O)(=O)c2ccccc2)CC1	104%
96	CCn1cc(C(=O)Nc2ccc3c(c2)OCCO3)c2cc(OC)c(OC)cc2c1=O	159%
97	Cc1cccc(-n2nc3c(c2NC(=O)c2ccco2)CSC3)c1C	-4%
98	CCC(=O)N1CN(S(=O)(=O)c2ccc(C)cc2)CC1C (stereo unspecified)	6%
99	CCCOC(=O)c1[nH]c2c(c1C)C(=O)CC(c1cc(OC)c(OC)c(OC)c1)C2 (stereo unspecified)	79%
100	O=C(CCS(=O)(=O)c1cccc2nonc12)N1CC(=O)N(CCc2ccccc2)C(=O)C1	49%
101	COc1cc(C(=O)OC2CCCCC2=O)cc(OC)c1C (stereo unspecified)	31%
102	Cc1ccc(CCNC(=O)C2CCCN2S(=O)(=O)c2ccc3c(c2)CCC(=O)N3)cc1 (stereo unspecified)	84%
103	CCOC(=O)CCC(=O)Nc1ccc(S(=O)(=O)N2CCCC2)cc1	2%
104	COc1ccccc1NC(=O)NCCCN1CCN(c2cccc(Cl)c2)CC1	4µM*[single pt active]
105	Cc1ccc(C)n1-c1cccc(N)c1	30%

entry	mol	AmpC nodet inh
106	O=C1CCc2cc(S(=O)(=O)N3CCC(C(=O)NC4CCCCCCC4)CC3)ccc2N1	27%
107	CC[C@H]1C2=C3C(CC[C@H]4C(OCc5ccc(F)cc5C(F)(F)F)OC[C@](C)([C@@H]34)N(C(=O)OC(C)(C)C)C2)C2COC(=O)OCC21 (stereo partly specified)	122%
108	O=C(O)[C@@H](O)[C@@H](O)[C@@H](O[C@H]1O[C@@H](CO)[C@@H](O)[C@@H](O)[C@@H]1O)[C@@H](O)CO	2%[12.8 µM]
109	CC(=O)CCc1c[nH]c2c(C(=O)O)cccc12	2%
110	CCOc1ccc(-c2c(C#N)c(N)nc3c2c(=O)n(C)c(=O)n3C)cc1OC	9%
111	Cn1cc(Cl)c(C(=O)Nc2cccc(Cl)c2Cl)n1	-4%
112	O=C(CCCN=C1NS(=O)(=O)c2ccccc21)OCC(=O)N1CCc2ccccc21	-3%
113	COc1ccccc1-c1cc(C(F)(F)F)nc(N2CCOCC2)n1	23%
114	N#Cc1ccccc1-c1cncnc1NCc1cccnc1	3%
115	COc1ccc(S(=O)(=O)N(C)CC(=O)NCc2cccnc2)cc1C	8%
116	CCOc1ccc(S(=O)(=O)N(CC(=O)N2CCc3ccccc32)Cc2ccco2)cc1	7%

Numbers 106 to 111 of the list above:
entry	mol	AmpC nodet inh
106	O=C1CCc2cc(S(=O)(=O)N3CCC(C(=O)NC4CCCCCCC4)CC3)ccc2N1	27%
107	CC[C@H]1C2=C3C(CC[C@H]4C(OCc5ccc(F)cc5C(F)(F)F)OC[C@](C)([C@@H]34)N(C(=O)OC(C)(C)C)C2)C2COC(=O)OCC21 (stereo partly specified)	122%
108	O=C(O)[C@@H](O)[C@@H](O)[C@@H](O[C@H]1O[C@@H](CO)[C@@H](O)[C@@H](O)[C@@H]1O)[C@@H](O)CO	2%[12.8 µM]
109	CC(=O)CCc1c[nH]c2c(C(=O)O)cccc12	2%
110	CCOc1ccc(-c2c(C#N)c(N)nc3c2c(=O)n(C)c(=O)n3C)cc1OC	9%
111	Cn1cc(Cl)c(C(=O)Nc2cccc(Cl)c2Cl)n1	-4%

The list is partial; the hit share may differ from the screen's.
